# Bioassay records as filed in PubChem BioAssay.
# Rango complex inh: inhibitors of Rango-importin beta complex formation | Potency, µM (highest dose often 92.2 µM), without a hit: at the highest dose inhibition of complex formation | AID 540263 | Rango CFP/YFP FRET sensor + importin beta, 45 min | 340,000 tested, 0.031% active | Q14974; active = rising FRET ratio curve, often small or poorly fitted; inconclusive = mostly compound fluorescence or quenching in the first reads; inactive = flat curves in all reads;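 note: potency is the fitted concentration of half-maximal effect; 0% = DMSO wells and 100% = buffer wells lacking importin beta; nearly all actives have a fitted effect of over 15% in size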
# Target sequence (Q14974 whole entry, looked up): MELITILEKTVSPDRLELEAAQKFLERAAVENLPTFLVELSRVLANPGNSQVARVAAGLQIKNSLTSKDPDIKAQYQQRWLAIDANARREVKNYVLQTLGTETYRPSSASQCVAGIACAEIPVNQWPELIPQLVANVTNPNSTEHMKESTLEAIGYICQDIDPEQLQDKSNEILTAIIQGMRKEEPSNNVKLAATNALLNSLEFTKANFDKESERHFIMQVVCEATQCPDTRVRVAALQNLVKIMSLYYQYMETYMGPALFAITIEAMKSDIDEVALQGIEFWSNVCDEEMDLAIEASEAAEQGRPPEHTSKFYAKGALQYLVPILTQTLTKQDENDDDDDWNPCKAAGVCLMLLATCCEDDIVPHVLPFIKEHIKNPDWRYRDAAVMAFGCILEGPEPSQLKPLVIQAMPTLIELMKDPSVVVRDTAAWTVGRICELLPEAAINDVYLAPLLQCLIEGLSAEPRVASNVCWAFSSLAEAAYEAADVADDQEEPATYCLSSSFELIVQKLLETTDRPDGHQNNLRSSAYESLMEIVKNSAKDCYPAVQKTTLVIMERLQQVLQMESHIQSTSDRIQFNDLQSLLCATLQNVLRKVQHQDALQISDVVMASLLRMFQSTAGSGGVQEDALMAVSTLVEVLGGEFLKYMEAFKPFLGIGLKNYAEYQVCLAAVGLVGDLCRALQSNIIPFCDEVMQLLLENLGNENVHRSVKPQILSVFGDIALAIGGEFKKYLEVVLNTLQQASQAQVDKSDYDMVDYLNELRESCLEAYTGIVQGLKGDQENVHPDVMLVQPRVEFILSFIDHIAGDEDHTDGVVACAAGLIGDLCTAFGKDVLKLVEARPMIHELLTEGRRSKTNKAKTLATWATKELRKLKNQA
#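 FRET biosensor (snurportin 1 IBB flanked by EYFP and cerulean), 50 nM, with compound 5 min, then 0.125 microM importin beta in PBS, 1 mM DTT, 0.02% Tween-20, 0.1% BSA. CFP/YFP ratio read after 45 min at room temperature; pre-read flags interference.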
# miR-21 FLuc: miR-21 reporter, rising signal | HeLa miR-21 FLuc reporter, luciferase, 48 h | Potency, µM (series often up to 38.3 µM), for the others: top-dose reporter change, positive = more light | 340,000 tested, under 10 active; active = well fitted rising curve with a large enough effect; inconclusive = small, poorly fitted or top-dose-only effect; inactive = no such curve, though single readings can be large or run the other way;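 note: % of control where 0% means no effect; miR-21 action dims this reporter so a rising signal means less miR-21 action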
#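 HeLa cells endogenously expressing miR-21, stably carrying CMV-driven firefly luciferase with a downstream miR-21 binding site, 2000 cells/well. Titrations up to approximately 40 uM, 48 hours; luciferase luminescence read.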
# Rango release inh: prevents RanGTP from dissociating the Rango-importin beta complex. O95149+P62826. Biochemical FRET Rango-importin beta, RanGTP-induced dissociation. Potency, µM (highest dose often 46.1 µM), inactives show at the top dose activity change, negative = inhibition. 340,000 tested, 0.071% active. AID 540253; active means falling FRET ratio curve, often poorly fitted, with flat reads before Ran was added; inconclusive means other falling curves, or compound fluorescence or quenching; inactive means flat or rising ratio curve;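 note: potency is the fitted concentration of half-maximal effect; % of control where 0% means no effect; nearly all actives have a fitted effect of over 45% in size; -100% = wells without RanGTP and RCC1; the record marks most hits as doubtful in a second field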
#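 Rango (0.1 uM)–importin beta (0.25 uM) complex; RanGTP-RCC1 trigger; 45 min RT; CFP/YFP FRET read.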
# GLA inh pH 4.5: blocks human alpha-galactosidase A at pH 4.5. P06280. purified enzyme, 4-MU-alpha-Gal fluorescence, pH 4.5. activity change, negative = inhibition, % at 105 µM. 230,000 tested, under 10 active. AID 1467; inconclusive = small, poorly fitted or top-dose-only inhibition, or a rising curve; inactive = flat fitted curve, though single readings scatter; no compound was filed as active;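 note: 0% = full activity with enzyme and -100% = basal without enzyme; dose as in the result columns while the protocol names 77 µM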
# Starred values were filed as active, the others as inactive; ? = inconclusive; / = no result given; [ ] = dose if it differs, or a comment. A portion of the library; rates above refer to the full screens.
1) Cc1ccc(NC(=O)CSC2=NN3CCCC(=O)N=C3S2)c(C)c1
2) O=C(O)C1CCN(C(=O)NC2CCCCC2)CC1
3) CCOc1cc(/C=N/NC(=O)c2ccccn2)ccc1OC(=O)c1ccc(F)cc1
4) CCOC(=O)N1CCC(NC(=O)CCN2C(=O)COc3ccccc32)CC1
5) CNC(=O)c1nc(C)n(-c2cc(Cl)cc(Cl)c2)n1
6) COC(=O)C(CO)NC(=O)C(C)NC(=O)CNC(=O)OCc1ccccc1 (stereo unspecified)
7) CN(CCOC(=O)/C=C/c1ccco1)Cc1ccccc1
8) CC(On1nnc2ccccc21)C(=O)N1CCN(Cc2ccccc2)CC1 (stereo unspecified)

Assay by compound | 1 | 2 | 3 | 4 | 5 | 6 | 7 | 8
Rango complex inh | -5.5% | 0.4% | -1.1% | -3.3% | 0.5% | -1.6% | -0.5% | -0.2%
miR-21 FLuc | 0% | -2% | -5% | -1% | -7% | 0% | -1% | -18%
Rango release inh | 2% | 9% | 0% | 8% | -5% | 3% | 25% | -6%
GLA inh pH 4.5 | 8 | 5 | / | 7 | 7 | 2 | -1 | -1

9) O=C(NNC(=S)NC(=O)c1ccccc1)c1ccc(O)cc1
10) CN(CC(=O)Nc1ccccc1C(=O)N1CCCC1)S(=O)(=O)c1ccc(Br)cc1
11) O=C1C2CCCCN2C(=O)N1CCN1CCN(c2ccc(F)cc2)CC1 (stereo unspecified)
12) O=C(CSc1nnc(-c2ccncc2)o1)N1CCCC1
13) CCN(C(=S)Nc1cccnc1)c1cccc2ccccc12
14) CCOC(=O)Cc1csc(NC(=O)COc2ccc(N(C)S(=O)(=O)c3cccs3)cc2)n1
15) O=C(Nc1cccc(S(=O)(=O)NC2=NCCCCC2)c1)c1ccc(Cl)cc1
16) O=c1n(-c2cccc(Cl)c2)c(=O)n2n1CCC2

Assay by compound | 9 | 10 | 11 | 12 | 13 | 14 | 15 | 16
Rango complex inh | -0.3% | -1.2% | -2.9% | -2.1% | -0.2% | -1.4% | ? | 4.5%
miR-21 FLuc | -3% | 0% | / | -6% | 3% | 16% | / | -7%
Rango release inh | 14% | -3% | 1% | 20% | -8% | 3% | -5% | 12%
GLA inh pH 4.5 | / | 10 | / | 0 | 3 | 1 | / | -9

17) COc1ccc(CNC(=O)CS(=O)Cc2nc(-c3ccc(C)cc3)oc2C)cc1 (stereo unspecified)
18) Cc1ccc(C)c(N2CCN(C(=O)c3ccc(CS(=O)Cc4ccc(Cl)cc4)o3)CC2)c1 (stereo unspecified)
19) CCOc1cc(N2CCOCC2)c(OCC)cc1NC(=O)c1cc(C)nc2ccccc12
20) CC(C)(C)CC(=O)NC(=S)Nc1ccccc1[N+](=O)[O-]
21) CC(C)(C)C(=O)NC(=S)Nc1cccc(C(=O)O)c1
22) COC(=O)Cc1c(C)c2ccc(OCC(=O)N3CCCC(C)C3)c(C)c2oc1=O (stereo unspecified)
23) O=C(Oc1ccc(Cl)c2cccnc12)N1CCOCC1
24) N=c1oc2ccc(Br)cc2cc1C(=O)NCc1ccc(F)cc1

Assay by compound | 17 | 18 | 19 | 20 | 21 | 22 | 23 | 24
Rango complex inh | 0.3% | 0.3% | -0.5% | 0.6% | -0.3% | 1.0% | 1.7% | 2.9%
miR-21 FLuc | -5% | 13% | 1% | 0% | -51% | 12% | 0% | 1%
Rango release inh | -11% | -22% | 16% | 22% | 2% | -1% | 1% | -12%
GLA inh pH 4.5 | -2 | / | 2 | 1 | -3 | / | -19 | /

# Part of the list above in order of SMILES length, lowest first.
24) N=c1oc2ccc(Br)cc2cc1C(=O)NCc1ccc(F)cc1
20) CC(C)(C)CC(=O)NC(=S)Nc1ccccc1[N+](=O)[O-]
17) COc1ccc(CNC(=O)CS(=O)Cc2nc(-c3ccc(C)cc3)oc2C)cc1 (stereo unspecified)

Assay by compound | 24 | 20 | 17
Rango complex inh | 2.9% | 0.6% | 0.3%
miR-21 FLuc | 1% | 0% | -5%
Rango release inh | -12% | 22% | -11%
GLA inh pH 4.5 | / | 1 | -2

# Additional compounds:
25) CCC(C)Nc1nc(CN2CCOCC2)nc2sc3c(c12)CCC3 (stereo unspecified)
26) CCN(CC(=O)Nc1ccc(Cl)c(C(F)(F)F)c1)CC(=O)NC1CCS(=O)(=O)C1 (stereo unspecified)
27) CN(CC1CCCO1)S(=O)(=O)c1ccc(C(=O)Nc2nc3cc4c(cc3s2)OCO4)cc1 (stereo unspecified)
28) O=C(COc1ccc(F)cc1)Nc1nc(-c2ccccn2)cs1
29) CSc1nnc(C2CCN(CC(=O)Nc3ccccc3N3CCOCC3)CC2)n1C
30) C(=Nc1ccc(Nc2ccccc2)cc1)c1ccc2ccccc2c1
31) COc1ccc(S(=O)(=O)NCC(=O)N(CC(=O)NCc2ccco2)Cc2ccc(F)cc2)cc1
32) CCOC(=O)CCc1nc2ccccc2[nH]c1=O

Assay by compound | 25 | 26 | 27 | 28 | 29 | 30 | 31 | 32
Rango complex inh | ? | -5.0% | -2.9% | 2.2% | 2.6% | 9.0% | -1.9% | -2.1%
miR-21 FLuc | -19% | 0% | 24% | / | 0% | -2% | -1% | -5%
Rango release inh | -14% | 0% | 0% | -10% | -9% | 1% | -2% | -7%
GLA inh pH 4.5 | -2 | -3[21.1 µM] | / | / | / | -1 | / | 1

33) N#Cc1ccccc1S(=O)(=O)Nc1ccc2c(c1)OCCO2
34) O=C(Nc1ccc(Cn2cccn2)cc1)c1ccc(COc2cccc(Br)c2)cc1
35) CNc1nc(Nc2ccccc2)nc(OCC(F)(F)F)n1
36) C=CCOc1ccc(C(c2c(O)nc(SC)[nH]c2=O)c2c(O)nc(SC)[nH]c2=O)cc1
37) O=C(N/N=C\c1ccc2c(c1)OCO2)c1cncc(Br)c1
38) Cc1ccc(C(=O)Nc2nc(-c3cccnc3)cs2)o1
39) COc1ccc(-n2c(SCC(=O)Nc3ccc(NC(C)=O)cc3)nc3c([nH]c4ccccc43)c2=O)cc1OC
40) CCCCc1c(O)n2c(nc3ccccc32)[nH]c1=O

Assay by compound | 33 | 34 | 35 | 36 | 37 | 38 | 39 | 40
Rango complex inh | -2.5% | -1.7% | 1.4% | -0.2% | -2.1% | 0.8% | 0.0% | -0.7%
miR-21 FLuc | -13% | 8% | -17% | / | -1% | -16% | 9% | -4%
Rango release inh | 26% | 1% | 18% | 0% | 11% | 2% | 0% | -2%
GLA inh pH 4.5 | / | -11 | 5 | / | / | 1 | / | 2

41) N#Cc1c(N)nc2c(c1N)CC(C(F)(F)F)O2 (stereo unspecified)
42) Nc1nc(N2CCN(C(c3ccccc3)c3ccccc3)CC2)n[nH]1
43) O=S(=O)(NCCN1CCCC1)c1ccc(Br)cc1
44) CCCc1cc(=O)[nH]c(SCC(=O)c2ccc3c(c2)OCCO3)n1
45) O=C(Oc1ccccc1F)C1CCN(C(=O)c2ccc(F)cc2)CC1
46) Cc1ccc(C(=O)c2cn(-c3ccc(F)c(Cl)c3)nn2)cc1
47) CCn1cc(S(=O)(=O)CC(=O)Nc2cc(C)ccc2C)c2ccccc21
48) Cc1onc(-c2ccccc2)c1C(=O)N1CCCN(C(=O)c2c(-c3ccccc3)noc2C)CC1

Assay by compound | 41 | 42 | 43 | 44 | 45 | 46 | 47 | 48
Rango complex inh | ? | 4.2% | 2.7% | 1.4% | -0.9% | 5.3% | 1.9% | 1.3%
miR-21 FLuc | 6% | -3% | -4% | -14% | / | -4% | -2% | 3%
Rango release inh | -4% | -1% | 9% | 0% | -4% | -9% | -6% | 6%
GLA inh pH 4.5 | 2 | 1 | / | 4 | / | -6 | 4 | -6

# From no. 34 as far as 46, as listed above:
34) O=C(Nc1ccc(Cn2cccn2)cc1)c1ccc(COc2cccc(Br)c2)cc1
35) CNc1nc(Nc2ccccc2)nc(OCC(F)(F)F)n1
36) C=CCOc1ccc(C(c2c(O)nc(SC)[nH]c2=O)c2c(O)nc(SC)[nH]c2=O)cc1
37) O=C(N/N=C\c1ccc2c(c1)OCO2)c1cncc(Br)c1
38) Cc1ccc(C(=O)Nc2nc(-c3cccnc3)cs2)o1
39) COc1ccc(-n2c(SCC(=O)Nc3ccc(NC(C)=O)cc3)nc3c([nH]c4ccccc43)c2=O)cc1OC
40) CCCCc1c(O)n2c(nc3ccccc32)[nH]c1=O
41) N#Cc1c(N)nc2c(c1N)CC(C(F)(F)F)O2 (stereo unspecified)
42) Nc1nc(N2CCN(C(c3ccccc3)c3ccccc3)CC2)n[nH]1
43) O=S(=O)(NCCN1CCCC1)c1ccc(Br)cc1

Assay by compound | 34 | 35 | 36 | 37 | 38 | 39 | 40 | 41 | 42 | 43
Rango complex inh | -1.7% | 1.4% | -0.2% | -2.1% | 0.8% | 0.0% | -0.7% | ? | 4.2% | 2.7%
miR-21 FLuc | 8% | -17% | / | -1% | -16% | 9% | -4% | 6% | -3% | -4%
Rango release inh | 1% | 18% | 0% | 11% | 2% | 0% | -2% | -4% | -1% | 9%
GLA inh pH 4.5 | -11 | 5 | / | / | 1 | / | 2 | 2 | 1 | /

44) CCCc1cc(=O)[nH]c(SCC(=O)c2ccc3c(c2)OCCO3)n1
45) O=C(Oc1ccccc1F)C1CCN(C(=O)c2ccc(F)cc2)CC1
46) Cc1ccc(C(=O)c2cn(-c3ccc(F)c(Cl)c3)nn2)cc1

Assay by compound | 44 | 45 | 46
Rango complex inh | 1.4% | -0.9% | 5.3%
miR-21 FLuc | -14% | / | -4%
Rango release inh | 0% | -4% | -9%
GLA inh pH 4.5 | 4 | / | -6

# (more compounds)
49) CCC(CO)Nc1ccc(-c2n[nH]c(=O)c3ccccc23)cc1[N+](=O)[O-] (stereo unspecified)
50) CC1COc2ccccc2N1S(=O)(=O)c1cc(Cl)ccc1Cl (stereo unspecified)
51) CCCn1c(O)c(CN2CCCCC2)c(C)c(C#N)c1=O
52) FC(F)(F)c1cc(Oc2ccccc2Cl)nc(-c2ccccn2)n1

Assay by compound | 49 | 50 | 51 | 52
Rango complex inh | 1.6% | -2.1% | ? | 1.2%
miR-21 FLuc | -9% | -1% | 6% | 11%
Rango release inh | 0% | 25% | ? | -3%
GLA inh pH 4.5 | / | / | -9 | 0
